# Mtb growth = Mycobacterium tuberculosis H37Rv growth inhibition, putative kinase inhibitor library, confirmatory dose response (AID 2842) | M. tuberculosis H37Rv growth inhibition; higher % means a stronger effect; some inactives read as strong as hits | inhibition, % at 10 µg/mL; hits with a dose series show IC90 in µg/mL | 24,000 compounds, 5.2% hits;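 active = confirmed in a dose series; about a fifth of its hits are not listed in these tables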;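 also: bacteria incubated one week before Alamar blue readout; 0% = bacteria only wells and 100% = bacteria with high antibiotic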
# An asterisk follows results filed as active.
SMILES,Mtb growth
Cc1ccc(OCC(O)Cn2c(NCC(C)C)nc3c2c(=O)[nH]c(=O)n3C)cc1C (stereo unspecified),10.7%
COc1cc(Cl)c(C)cc1-n1ccnc(NCCC2=CCCCC2)c1=O,80.4%
O=C(Nc1c(C(=O)Nc2ccc(F)c(F)c2)oc2ccccc12)c1ccc(F)cc1,9.5%
Cc1cc(C)cc(N2CC(C)Cn3c2nc2c3c(=O)n(CC(=O)O)c(=O)n2C)c1 (stereo unspecified),-11.8%
O=c1cnnc(N/N=C/c2ccc3c(c2)OCO3)[nH]1,18.1%
Cc1cc(SCc2ccc(Br)cc2)nc(=O)[nH]1,-8.7%
CCOC(=O)C1=C(C)NC(=S)NC1c1ccc(C)cc1 (stereo unspecified),14.1%
COc1cc(OC)cc(C(=O)Nc2nnc(-c3ccc4c(c3)CCCC4)o2)c1,97.3%
O=C(CSc1nnc(-c2ccco2)o1)Nc1nccs1,-5.9%
NC(=O)c1c(NC(=O)c2ccccc2Oc2ccccc2)sc2c1CCN(Cc1ccccc1)C2,21.4%
O=C(CS(=O)(=O)c1c[nH]c2ccccc12)N1CCc2ccccc21,10.4%
CC(C)COc1ccc(S(=O)(=O)Nc2ccc3c(c2)C(=O)Nc2ccccc2O3)cc1,6.99µg/mL*
CN(C(=O)c1ccc(Cl)cc1Cl)c1nnc(C23CC4CC(CC(C4)C2)C3)s1,-5.2%
CCOC(=O)c1nn(-c2ccc(Cl)cc2)c(=O)c2c(NC(=O)c3ccccc3OC)scc12,-1.6%
COc1ccc(OC)c2[nH]c(=O)c(CCNC(=O)c3ccco3)cc12,11.7%
Cc1ccc(C)c(NC(=O)CSc2nc3c([nH]c4ccccc43)c(=O)n2-c2ccc([N+](=O)[O-])cc2)c1,44.0%
Cn1cc(SCC(=O)Nc2ccc3c(c2)OCCO3)c2ccccc21,-0.1%
Cc1cc(C)cc(NC(=O)CSc2nc3c(c(=O)n2C)SC(C)C3)c1 (stereo unspecified),-12.9%
O=C(CC1Nc2ccccc2NC1=O)Nc1cc(Cl)cc(Cl)c1 (stereo unspecified),72.0%
COC(CNC(=O)c1c(O)nc2sccn2c1=O)OC,-4.4%
COc1cc(OC)cc(C(=O)Nc2nnc(-c3ccccc3)s2)c1,6.1%
O=C(Nc1nnc(-c2ccc3c(c2)CCCC3)o1)c1sc2ccccc2c1Cl,34.5µg/mL*
Cc1ccccc1C(=O)Nc1nnc(-c2ccccn2)o1,15.2µg/mL*
CCN(c1ccccc1)S(=O)(=O)c1ccc(NC(=O)c2oc3ccc(C)cc3c2C)cc1,3.8%
COc1ccc(S(=O)(=O)NC2CC(=O)N(c3ccc(C)c(C)c3)C2)cc1 (stereo unspecified),13.3%
CC(C)c1nnc(NC(=O)c2cc(Br)ccc2Cl)s1,1.4%
O=C(COc1ccc(Cl)cc1Cl)NCC(=O)N/N=C/c1cccs1,-7.3%
NC(=O)c1sc2nc(C3CC3)cc(-c3cccs3)c2c1N,79.9%
CCOC(=O)c1nn(-c2ccccc2)c(=O)c2c(NC(=O)C(C)C)scc12,-0.6%
CCOC(=O)c1nn(-c2ccc(OC)cc2)c(=O)c2c(NC(=O)c3ccc(C(F)(F)F)cc3)scc12,-4.1%
COc1cccc2c1OC(c1ccncc1)N1N=C(c3cc(Cl)ccc3O)CC21 (stereo unspecified),-2.4%
O=C(CSc1nnc2ccc(-c3cccs3)nn12)c1ccc(F)cc1,3.9%
CCOC(=O)N1CCN(C(=O)COc2cccc3c2CCN(Cc2ccc(Cl)cc2)C3=O)CC1,53.9%
CC(C)CCn1c(NCCc2ccccc2)nc2c1c(=O)n(C)c(=O)n2C,11µg/mL*
Cc1nnc(SCC(=O)Nc2ccccc2C(F)(F)F)n(N)c1=O,-8.0%
O=C(NNc1nc2c(F)cc(F)cc2s1)c1cc(-c2cccs2)nc2ccccc12,37.1%
Cc1ccc2cc(CCNC(=O)Cc3ccc(F)cc3)c(=O)[nH]c2c1C,5.0%
CCSc1nnc(NC(=O)COc2ccc(Cl)cc2Cl)s1,-4.6%
O=C1NC(=O)C(N2CCN(c3ccccc3)CC2)=C1Cl,-4.8%
O=C(c1ccc2c(c1)OCO2)N1CCN=C1SCc1ccccc1,12.6%
O=C(O)c1cccc(Nc2nc(-c3ccccc3)c3cc(Br)ccc3n2)c1,13.0%
Cc1[nH]c2ccccc2c1C(Nc1ccccn1)c1cccc(Br)c1 (stereo unspecified),6.8%
CC1=C(C(=O)Nc2ccccn2)C(c2cccc(O)c2)n2ncnc2N1 (stereo unspecified),-4.0%
C/C(Cl)=C/Cn1c(SCc2ccccc2Cl)nc2c1c(=O)[nH]c(=O)n2C,16.0%
Cc1ccc(Nc2nc(N3CCOCC3)nc3nccnc23)cc1C,17.6%
Cc1cc2cc(CCNC(=O)c3cccc4ccccc34)c(=O)[nH]c2cc1C,70.1%
CCc1ccc(NC(=O)c2oc3ccccc3c2NC(=O)c2ccccc2)cc1,9.3%
CCOC(=O)Cn1c(C)cn2c3c(=O)n(C)c(=O)n(C)c3nc12,-8.3%
CCOC(=O)c1oc2ccccc2c1NC(=O)c1cccc(OC)c1OC,28.1%
CCOc1ccc(C(=O)Nc2c(N)nc(SCCOC)[nH]c2=O)cc1,-3.2%
CCCn1c(=O)c2sccc2n2c(CCCC(=O)NCCc3c[nH]c4ccccc34)nnc12,-10.8%
COC(=O)c1c(NC(=O)c2ccc([N+](=O)[O-])o2)sc2c1CCC2,-6.8%
CCOc1ccc(C(=O)Nc2nnc(C(C)C)s2)cc1,3.8%
CCOC(=O)c1ccc(Oc2ncnc(N)c2[N+](=O)[O-])cc1,-2.2%
CC(C)N1CCc2c(sc(NC(=O)C(c3ccccc3)c3ccccc3)c2C#N)C1,3.2%
Cn1c(=O)c2c(SCc3ccc(Br)cc3)nc(-c3ccco3)nc2n(C)c1=O,4.6%
COC(=O)c1ccc(CSc2nnc(-c3ccncc3)o2)o1,5.77µg/mL*
CC(C)c1ccc(-c2nc(C(N)=O)c3[nH]c(=O)n(-c4ccccc4F)c3n2)cc1,-1.3%
CCCCC(=O)Nc1sc2c(c1C(N)=O)CC(C)CC2 (stereo unspecified),-0.9%
O=C(CSc1nnc2[nH]c(=O)ccn12)NCc1ccccc1Cl,-9.7%

# 14 successive entries from above:
SMILES,Mtb growth
C/C(Cl)=C/Cn1c(SCc2ccccc2Cl)nc2c1c(=O)[nH]c(=O)n2C,16.0%
Cc1ccc(Nc2nc(N3CCOCC3)nc3nccnc23)cc1C,17.6%
Cc1cc2cc(CCNC(=O)c3cccc4ccccc34)c(=O)[nH]c2cc1C,70.1%
CCc1ccc(NC(=O)c2oc3ccccc3c2NC(=O)c2ccccc2)cc1,9.3%
CCOC(=O)Cn1c(C)cn2c3c(=O)n(C)c(=O)n(C)c3nc12,-8.3%
CCOC(=O)c1oc2ccccc2c1NC(=O)c1cccc(OC)c1OC,28.1%
CCOc1ccc(C(=O)Nc2c(N)nc(SCCOC)[nH]c2=O)cc1,-3.2%
CCCn1c(=O)c2sccc2n2c(CCCC(=O)NCCc3c[nH]c4ccccc34)nnc12,-10.8%
COC(=O)c1c(NC(=O)c2ccc([N+](=O)[O-])o2)sc2c1CCC2,-6.8%
CCOc1ccc(C(=O)Nc2nnc(C(C)C)s2)cc1,3.8%
CCOC(=O)c1ccc(Oc2ncnc(N)c2[N+](=O)[O-])cc1,-2.2%
CC(C)N1CCc2c(sc(NC(=O)C(c3ccccc3)c3ccccc3)c2C#N)C1,3.2%
Cn1c(=O)c2c(SCc3ccc(Br)cc3)nc(-c3ccco3)nc2n(C)c1=O,4.6%
COC(=O)c1ccc(CSc2nnc(-c3ccncc3)o2)o1,5.77µg/mL*

# More entries follow.
SMILES,Mtb growth
COc1cccc(-n2ccnc2SCC(=O)Nc2nnc(C)s2)c1,0.6%
COc1cccc(C(=O)Nc2cc3c4c(c2)CCN4C(=O)CC3)c1OC,7.0%
CCc1nc(SCC(=O)Nc2cc(C(F)(F)F)ccc2Cl)c2c(=O)n(C)c(=O)n(C)c2n1,-2.0%
Nc1c(C(=O)Nc2ccccc2)sc2nc(-c3cccnc3)ccc12,-0.7%
COc1ccc(NC(=O)CCCn2c(=S)[nH]c3ccccc3c2=O)cc1,1.4%
CN(C1CCCCC1)S(=O)(=O)c1ccc(C(=O)Nc2ccccc2-c2nc3ccccc3s2)cc1,-2.4%
CCc1nc(SCC(=O)OCc2ccccc2)c2c(=O)n(C)c(=O)n(C)c2n1,-4.8%
Cc1ccccc1NC(=O)Cn1cnc2c(cnn2-c2ccccc2)c1=O,-14.0%
COc1ccc(CC(=O)Nc2c(C(=O)Nc3ccc4c(c3)OCCO4)oc3ccccc23)cc1,7.6%
CCOc1ccc(C(=O)Nc2sc3c(c2C(N)=O)CCCCC3)cc1,2.5%
O=C(COc1ccc(Cl)cc1/C=C1\SC(=O)NC1=O)Nc1ccc(F)cc1,68.8%
CCOc1ccc(NC(=O)c2oc3ccccc3c2NC(=O)CC(c2ccccc2)c2ccccc2)cc1,8.0%
CCCCn1c(N=Nc2c(O)[nH]c(=O)[nH]c2=O)nc2c1c(=O)[nH]c(=O)n2C,2.9%
O=C(/C=C\c1ccc2c(c1)OCO2)Nc1c(C(=O)Nc2ccccc2F)oc2ccccc12,-4.0%
O=c1[nH]c(-c2ccccc2)nc2sc(-c3ccccc3)cc12,-0.8%
NC(=O)COc1ccc(/C=c2\sc3nc(-c4cccc(Cl)c4)nn3c2=O)cc1,6.2%
Clc1ccc(Cn2cc3c(-c4ccc5c(c4)OCO5)nnc-3c3cc4c(cc32)OCO4)cc1,6.2%
CCOC(=O)CSc1nc(C)nc2c1c(=O)n(C)c(=O)n2C,-17.1%
CCc1cccc(OCC(O)Cn2c(NCCc3ccccc3)nc3c2c(=O)[nH]c(=O)n3C)c1 (stereo unspecified),-9.4%
CCCC(=O)Nc1ccc(O)c(C(=O)/C=C/c2ccc(C(=O)O)cc2)c1,-2.2%
CC1CCCN(S(=O)(=O)c2ccc(C(=O)Nc3nc(-c4ccc(F)cc4)cs3)cc2)C1 (stereo unspecified),-7.7%
COc1ccc(NC(=O)c2oc3ccccc3c2NC(=O)CC(C)(C)C)c(OC)c1,7.2%
CCOc1ccc(-n2c(SCC(=O)Nc3ccc(C)c(Cl)c3)nc3c([nH]c4ccccc43)c2=O)cc1,7.2%
O=C(Nc1cccc(F)c1)NC1CC(=O)N(c2ccc(Cl)cc2)C1 (stereo unspecified),1.6%
COc1ccc(C(=O)c2cn(CC(=O)Nc3ccc(Cl)cc3)c3ccc(F)cc3c2=O)cc1,74.5%
COc1ccc(OC)c(-c2nnc(NC(=O)c3ccc4c(c3)OCO4)s2)c1,2.2%
O=C(Nc1cc2c3c(c1)CCN3C(=O)CC2)C(=O)Nc1cc(F)ccc1F,6.2%
Fc1cccc2sc(NCc3ccccc3)nc12,10.2%
Cc1cccc(Cn2nnc(C(=O)O)c2C(=O)O)c1,-14.3%
O=C(Nc1ccc2c(c1)C(=O)NC2=O)c1ccco1,-1.0%
Cc1n[nH]c(C)c1CN,2.5%
Nc1ncnc(N2CCc3ccccc32)c1[N+](=O)[O-],19.8%
O=[N+]([O-])c1ccc2oc(SCc3nc4ccccn4c3Br)nc2c1,3.1%
COc1ccc(OC)c(NC(=O)c2oc3ccccc3c2NC(=O)Cc2ccc(OC)c(OC)c2)c1,-2.9%
CCN(CC)c1ccc(C=Nc2cccc(C(=O)Nc3cccc(Cl)c3)c2)c(O)c1,10.1%
O=C(COc1ccc(Br)cc1)N/N=C/c1ccc([N+](=O)[O-])cc1,2.1%
O=C(Nc1nnc(SCc2ccc(C(F)(F)F)cc2)s1)c1ccc(-c2ccccc2)cc1,13.1%
Nc1c(C(=O)Nc2ccc(Cl)c(Cl)c2)c2ccccn2c1C(=O)c1cccs1,-3.3%
COc1ccc2oc(=O)c(-c3csc(Nc4cccc(C)c4)n3)cc2c1,-1.1%
O=C(Nc1nc(-c2ccc3c(c2)OCCO3)cs1)c1ccc(Cl)cc1,3.8%
CCOC(=O)c1ccc(Nc2nnc3nc(C)cc(C)n23)cc1,-12.2%
Nc1ncnc(NCCc2ccc(S(N)(=O)=O)cc2)c1[N+](=O)[O-],-3.4%
O=C1CCc2cc(S(=O)(=O)Nc3cc(Cl)ccc3Cl)cc3c2N1CC3,1.8%
O=C(CCCn1c(=S)[nH]c2ccc(Br)cc2c1=O)NCc1ccc2c(c1)OCO2,-7.6%
CC(=O)Cn1c(=O)c2c(nc3n(-c4cc(C)ccc4C)c(C)cn23)n(C)c1=O,3.9%
CCOC(=O)c1c(NC(=O)/C=C/C(=O)O)sc2c1CCN(C(C)=O)C2,-22.6%
O=[N+]([O-])c1ccc(S(=O)(=O)N2CCN(C(c3ccccc3)c3ccccc3)CC2)cc1,-17.9%
O=C(Nc1ccc(F)c(Cl)c1)c1oc2ccccc2c1NC(=O)C1CC1,-4.9%
CCOC(=O)c1ccc(N=c2oc3ccc(OC)cc3cc2C(N)=O)cc1,68.4%
O=C(c1ccc(F)cc1)N1CCN=C1SCc1cccnc1,2.1%
COc1ccc(CC2S/C(=N/N=C/c3ccccc3O)NC2=O)cc1 (stereo unspecified),<0.2µg/mL*
Cc1ccc(CSc2nc3ccsc3c(=O)n2CCO)cc1,55.6%
O=C(NNc1nc2c(Cl)cccc2s1)c1cc(=O)c2ccccc2o1,-15.7%
O=C(CC1CCS(=O)(=O)C1)NCc1ccc2c(c1)OCO2 (stereo unspecified),4.2%
CCCc1cc(=O)[nH]c2nnc(SCC(=O)N3CC(C)OC(C)C3)n12 (stereo unspecified),-0.2%
NC(=O)c1c(NC(=O)c2ccc3ccccc3c2)sc2c1CCCCC2,10.9%
CC(C)CCn1c(SCCN2CCOCC2)nc2c1c(=O)[nH]c(=O)n2C,9.9%
OCc1nc2ccccc2n1CC(O)COc1ccc(Br)cc1 (stereo unspecified),10.2µg/mL*

# Source: PubChem (Southern Research Institute)

# An excerpt, so the mix of outcomes need not match the whole.
